gsp agonist: activates gsp, the McCune-Albright syndrome mutation. gsp mutant cells, cAMP HTRF, 30 min; control for the full effect not named in the record. Potency, µM (top dose mostly 76.9 µM), inactives show top-dose activation (cAMP increase), actives largely listed as activators. 340,000 tested, 0.13% active. AID 624287; active = well fitted activation curve with a large enough effect; inconclusive = small, poorly fitted or top-dose-only effect, or another doubt; inactive = no such curve, though single readings can be large or run the other way; cell line not stated here;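 note: phosphodiesterase inhibitor Ro 20-1724 added with compounds to block cAMP breakdown; potency is the fitted concentration of half-maximal effect; nearly all actives have a fitted effect of over 60% in size; about a fifth of the inactives were tested at one dose only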
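Cells stably selected in G418 were plated at 2000/well, grown 16-24 hr, then given compounds in DMSO with the PDE inhibitor […] (300 uM solution added) for 30 min at 37C; cAMP was read by HTRF.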
Sfp inh: Sfp phosphopantetheinyl transferase inhibition. 310,000 tested, 3.5% active. Potency, µM, inactives show max response, negative = inhibition, actives largely listed as inhibitors. Biochemical Sfp PPTase activity, qHTS; active = well fitted inhibition curve with a large enough effect; inconclusive = small, poorly fitted or top-dose-only effect, or another doubt; inactive = no such curve, though single readings can be large or run the other way;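 note: the enzyme is Sfp with the accession as filed and its product quenches rhodamine fluorescence; potency is the fitted concentration of half-maximal effect; 0% = enzyme reaction without inhibitor and -100% = no enzyme wells; top concentration of the series not given in the record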
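Reaction rates are the 30-min fluorescence difference (ex 525, em 598 nm) in wells containing 15 nM Sfp, 5 uM rhodamine-CoA and 12.5 uM BHQ-2-YbbR at pH 7.6 with 10 mM MgCl2.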
Menin-MLL FL inh: displaces fluorescein MLL peptide from human menin. AID 1766. 290,000 tested, under 10 active. Fluorescence polarization, fluorescein-MLL peptide displacement from menin. FP activity change, % at 61.4 µM; inconclusive = falling polarisation curve, or a change in total fluorescence; inactive = total fluorescence flat and polarisation flat or rising; no compound was filed as active; the % refers to the polarisation; negative = inhibition;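 note: % of control where 0% means no effect; inhibitors lower the polarisation; unlabelled MLL peptide was the positive control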
ClpP mod: qHTS Assay for Activators of ClpP | ATP-dependent Clp protease proteolytic subunit (Bacillus subtilis (strain 168)), P80244 | 340,000 tested, 1.9% active | Potency, µM (series often up to 57.5 µM), for inactives: top-dose activity change, negative = active | purified B. subtilis ClpP, FRET peptide cleavage, 20 min; active = well fitted falling curve with a large enough effect; inconclusive = small, poorly fitted or top-dose-only effect; inactive = no such curve, though single readings can be large or run the other way; note: potency is the fitted concentration of half-maximal effect; the source files actives as falling curves though it sought activators and does not explain the sign; nearly all actives have a fitted effect of over 65% in size; many hits overshoot -100%
Target sequence (P80244 whole entry, looked up): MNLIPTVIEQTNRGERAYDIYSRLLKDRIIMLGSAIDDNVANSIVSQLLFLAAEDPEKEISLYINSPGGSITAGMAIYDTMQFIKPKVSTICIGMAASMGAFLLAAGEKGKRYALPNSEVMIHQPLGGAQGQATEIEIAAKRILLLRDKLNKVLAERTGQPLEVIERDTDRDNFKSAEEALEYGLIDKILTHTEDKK
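Purified B. subtilis ClpP, 10 microg/mL final in Tris/HCl pH8 with KCl, BSA, glycerol and Tween-20, cleaved an Abz/nitrotyrosine-quenched decapeptide. Fluorescence (ex 320, em 430) was read at 0 and 20 min at room temperature. Delta was normalized to 5.8 microM ADEP and DMSO/no-enzyme controls.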
TRPV1 potentiator: human TRPV1 potentiation; TRPV1-expressing cells, Fluo-8 calcium influx, capsaicin EC20 potentiation; host cell line not named in the record; control for the full effect not named in the record; potentiation, % at 8.33 µM; 320,000 tested, 0.02% active; AID 540277; active means potentiation above 80%; inconclusive means 30% to 80%; inactive means below 30%; note: 0% is about no effect
Target sequence (Q8NER1 whole entry, looked up): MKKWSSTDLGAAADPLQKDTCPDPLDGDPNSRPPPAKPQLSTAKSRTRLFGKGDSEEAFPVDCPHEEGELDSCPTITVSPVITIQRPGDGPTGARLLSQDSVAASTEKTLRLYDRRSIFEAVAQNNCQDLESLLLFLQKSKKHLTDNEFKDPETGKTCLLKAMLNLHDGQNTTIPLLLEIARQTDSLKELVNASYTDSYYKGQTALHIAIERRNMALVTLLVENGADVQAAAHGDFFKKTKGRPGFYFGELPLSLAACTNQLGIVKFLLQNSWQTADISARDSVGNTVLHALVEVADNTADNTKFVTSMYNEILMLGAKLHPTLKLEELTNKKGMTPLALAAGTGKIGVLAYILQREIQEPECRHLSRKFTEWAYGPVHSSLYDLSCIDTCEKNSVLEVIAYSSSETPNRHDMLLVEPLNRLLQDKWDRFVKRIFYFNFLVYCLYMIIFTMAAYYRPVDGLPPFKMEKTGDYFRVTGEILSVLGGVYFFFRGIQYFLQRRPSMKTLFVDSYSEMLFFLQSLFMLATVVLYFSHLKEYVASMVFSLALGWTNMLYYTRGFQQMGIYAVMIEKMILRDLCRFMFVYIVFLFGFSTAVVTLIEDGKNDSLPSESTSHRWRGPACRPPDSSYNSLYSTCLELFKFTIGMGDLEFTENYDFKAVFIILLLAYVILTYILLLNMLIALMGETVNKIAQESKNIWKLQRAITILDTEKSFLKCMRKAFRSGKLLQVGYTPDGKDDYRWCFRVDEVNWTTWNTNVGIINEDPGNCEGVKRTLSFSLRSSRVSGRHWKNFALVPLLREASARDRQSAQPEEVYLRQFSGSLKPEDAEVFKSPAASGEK
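TRPV1-expressing cells were cultured overnight at 35.5C and loaded with Fluo-8 calcium dye for 40 to 90 min at room temperature. After a 10 s baseline, compound was added and calcium influx was read kinetically for 3 min (ex 480/em 520 nm).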
TRPML1 blocker: human mucolipin-1 channel inhibition | Q9GZU1 | 390,000 tested, 0.02% active | activity change, negative = inhibition, % (no concentration beside the values) | TRPML1-inducible cells, Ca2+ dye fluorescence, FDSS; hits give low values; inhibition of EC80 agonist-evoked calcium signal; in the data active means activity change below about -50%; inconclusive means about -30% to -50%; inactive means above about -30%;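 note: stimulus is agonist 54-4 at its EC80 concentration; % is set by controls: 0 for no effect and ±100 for the full control effect; compound concentration not given in the record; the text of the record puts the active cut at -80%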
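Calcium fluorescence in TRPML1-DL cells induced overnight with Tet: a 110 s read after compound pin addition, then a 110 s antagonist read after challenge with 54-4 at 4 uM final (EC80).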
gsp antag: gsp mutant antagonism | gsp-mutant cells, cAMP HTRF, 30 min; control for the full effect not named in the record | AID 624288 | 340,000 tested, 0.4% active | Potency, µM (series often up to 76.9 µM), without a hit: at the highest dose activity change, negative = inhibition, most hits filed as inhibitors; active = falling curve of any shape with a large fitted effect; inconclusive = falling curve, mostly with a smaller effect; inactive = flat or rising curve; cell line not stated here;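 note: intracellular cAMP measured with PDE inhibitor Ro 20-1724 present during compound exposure; potency is the fitted concentration of half-maximal effect; % is set by controls: 0 for no effect and ±100 for the full control effect; nearly all actives have a fitted effect of over 65% in size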
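G418-selected cells were plated in DMEM/10% FBS for 16-24 h at 37C, then treated with compounds plus the PDE inhibitor […] (300 uM solution added) for 30 min at 37C. Intracellular cAMP was measured by HTRF after 30 min lysis at room temperature.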
Starred values were filed as active, the others as inactive; u = inconclusive; x = not tested or not shown; & = joins results of further samples; [ ] = remark or other dose. Compounds were not picked by outcome (roughly 4.9% active in at least one column).

SMILES	gsp agonist	Sfp inh	Menin-MLL FL inh	ClpP mod	TRPV1 potentiator	TRPML1 blocker	gsp antag
COc1ccc2[nH]c(C)c(CCNc3ccc(C(F)(F)F)cc3[N+](=O)[O-])c2c1	-30.7%[15.4 µM]	15.5%	-2.8	-4.3%	u	10.5	-12.6%
ClCC1NCC(c2ccccc2Cl)c2c1[nH]c1ccccc21 (stereo not drawn)	12.4%	-2.5%	11.2	0.6%	0.0	19.9	4.9%
c1ccc(OCc2noc(CN3CC[C@@H]4CCCC[C@H]4C3)n2)cc1	3.2%	4.2%	-0.4	-2.0%	-0.9	-0.4	-6.8%
CCC(N=c1cc(-c2ccc(OC)cc2)oc2ccc(C)cc12)C(=O)O (stereo not drawn)	u	-0.8%	5.3	-19.1%	-9.8	3.6	-10.5%
CCC1CCCCN1C(=O)c1cc(S(=O)(=O)N2CCOCC2)ccc1C (stereo not drawn)	-10.4%	x	x	x	x	38.9	2.1%
CC(Nc1nc(-c2ccccc2)nc2ccccc12)c1ccccc1 (stereo not drawn)	6.4%	20.0%	-0.6	-10.1%	4.1	-12.6	-34.3%
CCOc1ccccc1CN1CCNC(=O)C1CC(=O)NC1CCCCCC1 (stereo not drawn)	10.1%	0.8%	-0.9	-8.5%	-12.7	2.6	6.9%
Cc1ccc(NC(=O)Nc2ccc(Cl)cn2)cc1	0.6%	-8.7%	8.8	-0.9%	9.0	7.3	4.5%
CCN(/C(N)=N/c1nc(C)cc(C)n1)c1ccccc1	-4.8%	16.7%	2.0	x	-5.8	-6.4	5.9%
CC(C)(C)c1ccc(C(=O)NCCNC(=O)c2ccco2)cc1	1.4%[15.4 µM]	-6.7%	-1.0	x	1.6	11.6	-23.4%
O=C(C[C@H]1C/C=C\CC[C@@H](Cc2ccc(F)cc2)C(=O)OCCNC1=O)NCCO	x	x	x	0.3%	x	0.9	11.1%
COc1ccc(NC(=O)CN2c3cccc4cccc(c34)S2(=O)=O)cc1	-26.5%	-13.4%	-1.1	-17.1%	u	23.4	12.4%
COc1ccc(NC(=O)CCn2nnc(-c3ccc(C)cc3)n2)cc1OC	-9.5%	10.2%	-1.0	-1.5%	-13.6	45.2	-15.4%
COCc1cnc(C)nc1N	-33.2%[inhibitor]	20.0%	1.4	x	-3.2	-6.0	2.3%
O=C(COC(=O)c1ccccc1OCc1ccc(Cl)cc1)NCC1CCCO1 (stereo not drawn)	17.1%	x	x	x	x	1.1	-16.4%
Cc1nnc(Sc2nc3c(c(=O)[nH]c(=O)n3C)n2CCc2ccccc2)s1	-21.8%	11.4%	-3.3	2.2%	3.3	26.6	-13.2%
COc1ccc(CC(=O)Nc2ccc(NC(=O)c3ccc(Br)cc3)cc2)cc1OC	6.6%[15.4 µM]	-28.9%	-2.2	-0.7%	-1.1	-5.6	4.0%
COc1cc(/C=C(\C#N)c2ccccn2)ccc1OCC(=O)Nc1c(Cl)cccc1Cl	-35.2%[inhibitor]	-31.7%	2.7	-3.2%	-3.4	-1.3	0.5%
O=C(CSc1ccc2nnc(CCNC(=O)c3ccccc3)n2n1)NCc1ccc(F)cc1	-12.0%[15.4 µM]	18.8%	x	1.2%	6.9	-5.7	6.9%
CCC(Cc1ccccc1)NC(=O)C1CC1 (stereo not drawn)	-10.9%	18.6%	1.5	x	6.9	8.2	-1.5%
COc1cc(C(=O)NCCCN(C)C)ccc1OCC(=O)Nc1cccc(C(F)(F)F)c1	-36.1%[inhibitor]	17.5%	-0.5	x	0.3	2.9	4.6%
CCOc1ccc(CN(C)CC(=O)NCc2ccc(F)cc2)cc1	-24.4%	4.1%	-8.7	-0.4%	-22.2	-5.0	-5.0%
COc1ccc(NC(=O)CN(C)C(=O)/C=C/c2cn(-c3ccccc3)nc2-c2ccc(C)cc2)cc1	-0.3%[15.4 µM]	x	x	-21.2%	4.7	-5.9	-22.1%
O=C(NN/C(=N/S(=O)(=O)c1ccc(Cl)cc1)c1ccccc1)c1cccc(Cl)c1	-0.8%[15.4 µM]	11.3%	0.7	x	0.5	-5.3	-7.7%
COc1ccc(NC(=O)CSc2nc3nc(C)cc(C)n3n2)cc1	20.5%	15.9%	x	-0.9%	-2.6	-3.9&-7.4	11.8%
Cc1[nH]c(=O)[nH]c(=O)c1NC(=O)c1sc2nc3c(C)cccc3cc2c1N	29.0%	-26.9%	22.0	3.5%	4.6	11.4	-8.9%
NC(=O)CCCCC(=O)OCCCc1cccs1	-1.1%	17.8%	2.4	-1.4%	-18.6	-0.6	-2.6%
CCOc1cc(CNCc2ccncc2)cc(Cl)c1OC	12.9%	-28.9%	9.3	u	-5.0	11.7	5.7%
Cc1nc2ccc(NC(=O)COc3ccccc3[N+](=O)[O-])cc2s1	-15.8%[15.4 µM]	5.2%	0.8	x	-11.7	14.4	-0.4%
Cc1ccc(C(=O)OCn2nnc3ccccc3c2=O)cc1[N+](=O)[O-]	-19.0%	-14.2%	-2.3	-2.2%	u	17.2	0.6%
CC12CCCCC1c1ccccc1C(=NCC(=O)O)N2 (stereo not drawn)	5.6%	21.3%	-2.5	-4.2%	6.5	-6.7	7.8%
CC(C)CN(C(=O)CSc1ccc2c(c1)OCCO2)c1c(N)n(CC(C)C)c(=O)[nH]c1=O	-32.7%[inhibitor]	x	x	-4.3%	29.5	4.0	-0.8%
O=C1c2ccccc2C(=O)N1CSc1nnnn1-c1ccccc1	u	9.3%	3.5	-0.1%	4.9	15.6	-1.3%
Cn1cccc1Cc1nnc(SCC(=O)Nc2ccc3c(c2)OCCO3)n1CCc1ccccc1	8.2%	-1.6%	1.1	2.5%	20.1	10.7	-18.9%
COC(=O)CCC(=O)N(CCN(C(=O)CCC(=O)OC)c1ccccc1)c1ccccc1	20.8%	7.0%	-0.2	x	-7.7	-1.2	-7.8%
N#CCSc1ncccc1-c1nc2ccccc2[nH]1	-0.4%	-12.0%	8.7	-24.8%	17.6	12.4	1.6%
COc1ccc(C(=O)N(CC(=O)Nc2sc(C)c(C)c2C(N)=O)C2CCCC2)cc1	2.2%[15.4 µM]	-10.3%	1.1	x	-10.1	-19.1	x
O=C(c1ccc(Cl)c(S(=O)(=O)N2CCCCCC2)c1)N1CCCCC1	-1.0%	5.7%	x	2.0%	-19.5	0.7	-8.4%
Cc1ccc2oc(=O)c3cnn(CC(=O)N(CCN(C)C)Cc4ccco4)c3c2c1	-2.0%	12.9%	3.0	0.3%	u	42.1	1.4%
COc1ccccc1NS(=O)(=O)c1cccc(C(=O)NCC2(N(C)C)CCCCC2)c1	3.2%[15.4 µM]	x	x	0.2%	5.1	5.1	11.1%

Exported comma-delimited: two of the compounds above.
SMILES,gsp agonist,Sfp inh,Menin-MLL FL inh,ClpP mod,TRPV1 potentiator,TRPML1 blocker,gsp antag
CCOc1cc(CNCc2ccncc2)cc(Cl)c1OC,12.9%,-28.9%,9.3,u,-5.0,11.7,5.7%
N#CCSc1ncccc1-c1nc2ccccc2[nH]1,-0.4%,-12.0%,8.7,-24.8%,17.6,12.4,1.6%

Compounds above that contain fluorine (5):
SMILES	gsp agonist	Sfp inh	Menin-MLL FL inh	ClpP mod	TRPV1 potentiator	TRPML1 blocker	gsp antag
COc1ccc2[nH]c(C)c(CCNc3ccc(C(F)(F)F)cc3[N+](=O)[O-])c2c1	-30.7%[15.4 µM]	15.5%	-2.8	-4.3%	u	10.5	-12.6%
O=C(C[C@H]1C/C=C\CC[C@@H](Cc2ccc(F)cc2)C(=O)OCCNC1=O)NCCO	x	x	x	0.3%	x	0.9	11.1%
O=C(CSc1ccc2nnc(CCNC(=O)c3ccccc3)n2n1)NCc1ccc(F)cc1	-12.0%[15.4 µM]	18.8%	x	1.2%	6.9	-5.7	6.9%
COc1cc(C(=O)NCCCN(C)C)ccc1OCC(=O)Nc1cccc(C(F)(F)F)c1	-36.1%[inhibitor]	17.5%	-0.5	x	0.3	2.9	4.6%
CCOc1ccc(CN(C)CC(=O)NCc2ccc(F)cc2)cc1	-24.4%	4.1%	-8.7	-0.4%	-22.2	-5.0	-5.0%

Continuation.
SMILES	gsp agonist	Sfp inh	Menin-MLL FL inh	ClpP mod	TRPV1 potentiator	TRPML1 blocker	gsp antag
CC(C)c1ccccc1NC(=O)COC(=O)c1cc(=O)[nH]c(=O)[nH]1	8.2%[15.4 µM]	24.3%	u	x	0.9	-2.3	13.4%
Cc1ccc(OC(=S)Nc2ccc(O)cc2)cc1	28.9%	-13.5%	0.1	0.7%	3.6	7.7	11.2%
Cc1ccc(-n2nnnc2-c2cnn(-c3ccc(F)cc3)c2C(F)(F)F)cc1	2.1%	3.9%	1.0	0.7%	-13.4	-1.8	-6.6%
CC(=O)NCCn1c(SCc2ccccc2F)nc2ccccc2c1=O	-34.9%[inhibitor]	4.7%	11.9	-1.2%	-7.8	-1.5	-3.4%
COc1ccc(NC(=O)C2CCCN(S(=O)(=O)c3cccc4cccnc34)C2)cc1 (stereo not drawn)	-41.2%[inhibitor]	23.0%	0.1	2.1%	2.0	0.9	-12.2%
O=C(CCc1ccccc1)Nc1cc2c(cc1C(=O)O)OCCCO2	7.7%[15.4 µM]	x	x	-0.7%	x	23.8	u
O=C(Nc1nnc(CCN2CCCCC2)s1)c1ccc(Br)cc1	23.1%[15.4 µM]	14.3%	4.9	-0.1%	8.3	15.8	-22.6%
Cc1ccc(NC(=O)C2CCCN2C(=O)Oc2ccccc2)cc1C (stereo not drawn)	-23.6%	-9.0%	1.3	-2.0%	1.3	-14.0	-0.4%
O=C(O)Cn1cc2c(n1)CCCC2	29.4%	23.2%	12.8	0.9%	7.6	4.3	-4.6%
COc1c(C(=O)NCCSC(C)(C)C)ccc2ccccc12	6.1%[15.4 µM]	4.0%	5.6	-1.2%	-11.0	-2.6	-29.7%
CCN(CC)C(=O)/C(=C/c1cccc([N+](=O)[O-])c1)NC(=O)c1ccco1	0.7%	1.7%	-4.9	x	4.5	4.3	0.5%
COc1ccc(C(=O)NCC(C)(C)N2CCOCC2)cc1S(=O)(=O)N1CCCC1	-40.5%[inhibitor]	x	x	1.7%	9.1	18.7	4.4%

Source: PubChem BioAssay
